# UUG fidelity: modulators of start codon recognition fidelity in yeast. S. cerevisiae UUG-firefly luciferase reporter, luminescence/redox ratio. activity score, % at 18.7 µM. 0.13% of 350,000 active;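 active = replicate mean at a twofold rise or more, about +100% in these data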;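 also: firefly luciferase made from a UUG start codon reports start codon fidelity; reporter light over untreated wells divided by growth signal over untreated wells; some hits fall short of that in this replicate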
# HIV Env fusion: blocks HIV Env-driven cell-cell fusion; HeLa-JRFL Env/CEM21 cell fusion, luciferase; inhibition, % at 12.3 µM; 1.1% of 360,000 active; AID 651610;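 active = mean replicate inhibition score of at least 50 and every replicate individually at or above 50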;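 also: 0% = plate neutral controls and 100% = maraviroc near 300 nM; one replicate is shown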
# The depositor's hits bear a star; & = joins results of further samples; [ ] = remark or other dose. Only part of the results is shown; the hit share may differ from the screen's.
SMILES,UUG fidelity,HIV Env fusion
C[C@@H]1CCCCO[C@H](CN(C)CC2CCCCC2)[C@@H](C)CN([C@@H](C)CO)C(=O)c2cc(NS(=O)(=O)c3cn(C)cn3)ccc2O1,3,19[16.7 µM]
C[C@H](CO)N1C[C@H](C)[C@H](CN(C)C(=O)Nc2ccccc2)Oc2ncc(-c3cc4ccccc4o3)cc2C1=O,0,-15[16.7 µM]
C/C=C/c1cnc2c(c1)C(=O)N([C@@H](C)CO)C[C@H](C)[C@H](CN(C)C(=O)Cc1cccnc1)O2,2,-16[16.7 µM]
C[C@@H]1CN([C@H](C)CO)C(=O)c2cc(C#CCc3ccccc3)cnc2O[C@@H]1CN(C)C(=O)C1CCOCC1,2,7[16.7 µM]
CC(C)NC(=O)N(C)C[C@H]1Oc2c(NC(=O)c3ccc(-c4nccs4)cc3)cccc2C(=O)N([C@H](C)CO)C[C@H]1C,15,-58[16.7 µM]
C[C@@H]1CN([C@@H](C)CO)C(=O)c2cc(NC(=O)Cc3ccccc3)ccc2O[C@@H](C)CCCCO[C@H]1CN(C)Cc1ccc(C(=O)O)cc1,12,-11[16.7 µM]
C[C@@H]1CN([C@H](C)CO)S(=O)(=O)c2ccc(C#Cc3ccccc3F)cc2O[C@@H]1CN(C)CC1CCOCC1,-2,-6[16.7 µM]
N#C[C@H]1[C@@H](c2ccc(-c3cccc(F)c3)cc2)[C@H](CO)N1C(=O)NC1CCCC1,1,9[16.7 µM]
COc1ccccc1-c1cnc2c(c1)C(=O)N([C@H](C)CO)C[C@@H](C)[C@@H](CN(C)C(=O)c1ccncc1)O2,-6,12[16.7 µM]
Cc1ccc(S(=O)(=O)NCC[C@@H]2CC[C@H](NC(=O)Nc3ccccc3F)[C@@H](CO)O2)cc1,-7,-19[16.7 µM]

# As entered above:
# Under HIV Env fusion, Cc1ccc(S(=O)(=O)NCC[C@@H]2CC[C@H](NC(=O)Nc3ccccc3F)[C@@H](CO)O2)cc1 has -19[16.7 µM]
# Under HIV Env fusion, C[C@H](CO)N1C[C@H](C)[C@H](CN(C)C(=O)Nc2ccccc2)Oc2ncc(-c3cc4ccccc4o3)cc2C1=O has -15[16.7 µM]
# Under HIV Env fusion, C[C@@H]1CN([C@@H](C)CO)C(=O)c2cc(NC(=O)Cc3ccccc3)ccc2O[C@@H](C)CCCCO[C@H]1CN(C)Cc1ccc(C(=O)O)cc1 has -11[16.7 µM]

# Going on with the list:
SMILES,UUG fidelity,HIV Env fusion
O=C(C[C@H]1C[C@@H]2c3cc(NC(=O)Nc4ccccc4F)ccc3O[C@@H]2[C@H](CO)O1)NC1CCCC1,-8,-9[16.7 µM]
CN(C)CCCNC(=O)C[C@@H]1CC[C@@H](NC(=O)Cc2cccnc2)[C@H](CO)O1,-33,-9[16.7 µM]
C[C@H](CO)N1C[C@H](C)[C@H](CN(C)Cc2ccc(Oc3ccccc3)cc2)Oc2ccc(NS(=O)(=O)c3ccccc3)cc2CC1=O,14,-20[16.7 µM]
NC(=O)[C@@H]1[C@H]2C(=O)O[C@H](c3ccccc3)[C@H](c3ccccc3)N2[C@H](c2ccccc2OCCO)[C@@]12C(=O)Nc1ccccc12,7,-19[16.7 µM]
Cn1cnc(CCNC(=O)C[C@H]2CC[C@@H]3[C@H](COC[C@@H](O)CN3C(=O)C3CCCC3)O2)c1,0,9[16.7 µM]
CO[C@H]1CN(C)C(=O)c2cc(NS(=O)(=O)c3ccc(Oc4ccccc4)cc3)ccc2OC[C@@H](C)NC[C@@H]1C,3,-10[16.7 µM]
C[C@@H]1CN([C@H](C)CO)C(=O)c2cc(NC(=O)c3ccccc3)ccc2O[C@@H](C)CCCCO[C@@H]1CN(C)Cc1ccccc1,8,4[16.7 µM]
CN1C(=O)c2cc(NC(=O)c3cccc(F)c3)ccc2OC[C@H]2O[C@H](CC(=O)NC3CCC3)CC[C@H]21,3&-19,11&27[16.7 µM]
C[C@H](CO)N1C[C@H](C)[C@H](CN(C)C(=O)Nc2ccc(F)cc2)Oc2ccc(NC(=O)CCN3CCOCC3)cc2CC1=O,-22,-12[16.7 µM]
O=C(C[C@@H]1CC[C@H]2[C@@H](COC[C@@H](O)CN2C(=O)c2ccccc2)O1)NCc1ccc(-c2ccccc2)cc1,3,3[16.7 µM]
O=C(Nc1ccccc1F)N[C@@H]1CC[C@@H](CCNS(=O)(=O)c2ccc(F)cc2)O[C@H]1CO,4,-15[16.7 µM]
COc1ccc(S(=O)(=O)Nc2ccc3c(c2)C(=O)N([C@H](C)CO)C[C@@H](C)[C@@H](CN(C)C)O3)cc1,-8,-10[16.7 µM]
C[C@@H]1CN([C@@H](C)CO)S(=O)(=O)c2ccc(-c3ccncc3)cc2O[C@@H]1CN(C)C(=O)c1cccc(F)c1,-8,-10[16.7 µM]
C[C@H](CO)N1C[C@H](C)[C@@H](CN(C)Cc2ccncc2)Oc2ncc(C#CC3CCCC3)cc2C1=O,-9,-6[16.7 µM]
Cc1ccc(S(=O)(=O)Nc2ccc3c(c2)C(=O)N([C@@H](C)CO)C[C@H](C)[C@@H](CN(C)C(=O)c2ccccc2)OCCCC[C@@H](C)O3)cc1,18,-10[16.7 µM]
O=C(N[C@H]1C=C[C@H](CC(=O)N2CCOCC2)O[C@@H]1CO)c1ccccn1,-17,12[16.7 µM]
C[C@@H]1CN([C@@H](C)CO)C(=O)c2cccc(NS(=O)(=O)c3ccccc3)c2O[C@@H]1CN(C)Cc1ccc(C(=O)O)cc1,-22,-5[16.7 µM]
C[C@@H]1CN([C@H](C)CO)S(=O)(=O)c2ccc(C#CC(C)(C)O)cc2O[C@H]1CN(C)Cc1ccncc1,-11,-3[16.7 µM]
Cc1noc(C)c1NC(=O)Nc1cccc2c1O[C@H](CN(C)Cc1ccc(Cl)c(Cl)c1)[C@@H](C)CN([C@@H](C)CO)C2=O,7,-55[16.7 µM]
C[C@H](CO)N1C[C@H](C)[C@H](CN(C)C(=O)Nc2ccc3c(c2)OCO3)OCCCC[C@H](C)Oc2ccc(NC(=O)NC3CCCCC3)cc2C1=O,-3,11[16.7 µM]

# 6 compounds already listed, sorted by the value under UUG fidelity, ascending.
Molecule,UUG fidelity
C[C@@H]1CN([C@@H](C)CO)C(=O)c2cccc(NS(=O)(=O)c3ccccc3)c2O[C@@H]1CN(C)Cc1ccc(C(=O)O)cc1,-22
O=C(N[C@H]1C=C[C@H](CC(=O)N2CCOCC2)O[C@@H]1CO)c1ccccn1,-17
C[C@@H]1CN([C@H](C)CO)S(=O)(=O)c2ccc(C#CC(C)(C)O)cc2O[C@H]1CN(C)Cc1ccncc1,-11
COc1ccc(S(=O)(=O)Nc2ccc3c(c2)C(=O)N([C@H](C)CO)C[C@@H](C)[C@@H](CN(C)C)O3)cc1,-8
C[C@H](CO)N1C[C@H](C)[C@H](CN(C)C(=O)Nc2ccc3c(c2)OCO3)OCCCC[C@H](C)Oc2ccc(NC(=O)NC3CCCCC3)cc2C1=O,-3
O=C(Nc1ccccc1F)N[C@@H]1CC[C@@H](CCNS(=O)(=O)c2ccc(F)cc2)O[C@H]1CO,4

# Additional structures follow:
SMILES,UUG fidelity,HIV Env fusion
CCC(=O)N(C)C[C@H]1Oc2cc(-c3cncnc3)ccc2S(=O)(=O)N([C@H](C)CO)C[C@@H]1C,-1,-5[16.7 µM]
C[C@@H]1CCCCO[C@@H](CN(C)C(=O)C2CCCCC2)[C@@H](C)CN([C@H](C)CO)C(=O)c2cc(NC(=O)Cc3ccccc3)ccc2O1,0,-8[16.7 µM]
C[C@@H]1CN([C@H](C)CO)C(=O)c2cc(-c3ccncc3)cnc2O[C@H]1CN(C)C(=O)c1cccc(F)c1,8,8[16.7 µM]
COc1ccccc1CNC(=O)C[C@@H]1C[C@@H]2c3cc(NC(=O)Nc4ccccc4F)ccc3O[C@@H]2[C@H](CO)O1,7,19[16.7 µM]
C[C@@H]1CCCCO[C@H](CN(C)C(=O)CCCN(C)C)[C@@H](C)CN([C@H](C)CO)C(=O)c2cc(NS(=O)(=O)c3ccc(Cl)cc3)ccc2O1,11,7[16.7 µM]
C[C@@H]1CN([C@@H](C)CO)S(=O)(=O)c2ccc(C3=CCCC3)cc2O[C@@H]1CN(C)C(=O)c1ccccc1,18,19[16.7 µM]
Cc1ccc(S(=O)(=O)N(C)C[C@@H]2OCCCC[C@@H](C)Oc3ccc(NS(=O)(=O)c4ccc(Cl)cc4)cc3C(=O)N([C@H](C)CO)C[C@@H]2C)cc1,-10,4[16.7 µM]
COc1ccc(S(=O)(=O)N(C)C[C@@H]2OCCCC[C@@H](C)Oc3ccc(NC(=O)Nc4ccc(C(F)(F)F)cc4)cc3C(=O)N([C@H](C)CO)C[C@@H]2C)cc1,0,7[16.7 µM]
C[C@@H]1CN([C@H](C)CO)C(=O)c2cc(-c3cccc(F)c3)cnc2O[C@H]1CN(C)Cc1cncnc1,-4,13[16.7 µM]
C[C@H]1CN([C@@H](C)CO)C(=O)c2cc(NS(=O)(=O)c3ccc(F)cc3)ccc2O[C@H]1CN(C)C(=O)NC1CCCCC1,10,0[16.7 µM]

# Two of these compounds, reformatted:
C[C@H]1CN([C@@H](C)CO)C(=O)c2cc(NS(=O)(=O)c3ccc(F)cc3)ccc2O[C@H]1CN(C)C(=O)NC1CCCCC1
  UUG fidelity: 10 | HIV Env fusion: 0[16.7 µM]

CCC(=O)N(C)C[C@H]1Oc2cc(-c3cncnc3)ccc2S(=O)(=O)N([C@H](C)CO)C[C@@H]1C
  UUG fidelity: -1 | HIV Env fusion: -5[16.7 µM]

# (list continues)
SMILES,UUG fidelity,HIV Env fusion
C[C@H](CO)N1C[C@H](C)[C@H](CN(C)S(C)(=O)=O)Oc2ncc(C#CC3(O)CCCC3)cc2C1=O,0,-27[16.7 µM]
O=[N+]([O-])c1ccc(-c2cccnc2)cc1,-9,-11
COc1ccc(NC(=O)Nc2ccc3c(c2)C(=O)N([C@@H](C)CO)C[C@H](C)[C@@H](CN(C)S(=O)(=O)c2cccs2)O3)cc1,2,10[16.7 µM]
C[C@H](CO)N1C[C@H](C)[C@@H](CN(C)S(=O)(=O)c2ccc(Cl)cc2)Oc2ccc(NC(=O)Nc3ccc(F)cc3)cc2C1=O,-11,-18[16.7 µM]
C/C=C/c1ccc2c(c1)O[C@H](CN(C)C(=O)COC)[C@H](C)CN([C@@H](C)CO)S2(=O)=O,-8,-3[16.7 µM]
Cc1noc(C)c1S(=O)(=O)Nc1ccc2c(c1)C(=O)N([C@H](C)CO)C[C@H](C)[C@H](CN(C)C(=O)CCCN(C)C)OCCCC[C@H](C)O2,-1,2[16.7 µM]
C[C@@H]1CN([C@@H](C)CO)C(=O)c2cc(NC(=O)C3CCCCC3)ccc2O[C@@H](C)CCCCO[C@@H]1CN(C)CC1CCCCC1,18,8[16.7 µM]
CC(=O)Nc1ccc2c(c1)C(=O)N(C)[C@H]1CC[C@H](CC(=O)Nc3ccccc3Cl)O[C@@H]1CO2,-9,14[16.7 µM]
COc1ccc(NC(=O)N[C@H]2CC[C@@H](CCNC(=O)Cc3ccncc3)O[C@@H]2CO)cc1,-4,18[16.7 µM]
CCCC#Cc1cnc2c(c1)C(=O)N([C@H](C)CO)C[C@@H](C)[C@@H](CN(C)C(=O)Nc1ccccc1F)O2,14,0[16.7 µM]
C[C@H](CO)N1C[C@H](C)[C@H](CN(C)Cc2ccc(C(=O)Nc3ccccc3N)cc2)Oc2ccc(NC(=O)Nc3ccccc3)cc2C1=O,0,6[16.7 µM]
C[C@H](CO)N1C[C@H](C)[C@@H](CN(C)Cc2ccc3c(c2)OCO3)Oc2c(NC(=O)C3CCOCC3)cccc2C1=O,-6,-13[16.7 µM]
C[C@@H]1CN([C@H](C)CO)S(=O)(=O)c2ccc(/C=C/c3ccccc3)cc2O[C@@H]1CN(C)C(=O)c1ccc2c(c1)OCO2,-17,5[16.7 µM]
C[C@H](CO)N1C[C@H](C)[C@@H](CN(C)Cc2ccc(Oc3ccccc3)cc2)Oc2ccc(NC(=O)c3ccncc3)cc2C1=O,-5,9[16.7 µM]
C[C@H]1CN([C@@H](C)CO)C(=O)Cc2cc(NS(=O)(=O)c3ccc(Cl)cc3)ccc2O[C@H]1CN(C)S(=O)(=O)c1ccccc1,-2,6[16.7 µM]
C[C@@H]1CN([C@@H](C)CO)C(=O)c2cccc(NC(=O)Nc3cccc4ccccc34)c2O[C@H]1CN(C)C(=O)Nc1ccc(F)cc1,-2,2[16.7 µM]
C[C@@H]1CCCCO[C@@H](CN(C)C(=O)C2CCCCC2)[C@H](C)CN([C@@H](C)CO)C(=O)c2cc(NC(=O)Cc3ccccc3)ccc2O1,9,-24[16.7 µM]
COc1ccccc1NC(=O)N(C)C[C@@H]1Oc2cc(Br)ccc2S(=O)(=O)N([C@H](C)CO)C[C@H]1C,8,0[16.7 µM]
CN1C(=O)c2cc(NC(=O)c3cccc(F)c3)ccc2OC[C@@H]2O[C@@H](CC(=O)NC3CCC3)CC[C@@H]21,11&-2,12&4[16.7 µM]
C[C@@H]1CN([C@H](C)CO)C(=O)c2cc(-c3ccccc3F)cnc2O[C@@H]1CN(C)Cc1cccc(F)c1,-7,27[16.7 µM]
Cc1ccc(S(=O)(=O)N[C@H]2CC[C@H](CCNC(=O)C3CCC3)O[C@@H]2CO)cc1,5,9[16.7 µM]
Cc1ccc(S(=O)(=O)N(C)C[C@@H]2OCCCC[C@H](C)Oc3ccc(NC(=O)NC4CCCCC4)cc3C(=O)N([C@H](C)CO)C[C@H]2C)cc1,-5,1[16.7 µM]
C[C@@H]1CN([C@@H](C)CO)C(=O)c2cc(NC(=O)CCN3CCOCC3)ccc2O[C@H]1CN(C)S(=O)(=O)c1cccs1,-4,-7[16.7 µM]
O=C(Nc1ccccc1)N[C@@H]1CC[C@@H](CCNC(=O)c2ccccc2F)O[C@@H]1CO,-4,11[16.7 µM]
COc1ccc(S(=O)(=O)N[C@@H]2CC[C@@H](CC(=O)NCCc3ccncc3)O[C@@H]2CO)cc1,-4,58*[16.7 µM]
C[C@@H]1CN([C@H](C)CO)S(=O)(=O)c2ccc(-c3cncnc3)cc2O[C@@H]1CN(C)C(=O)Cc1ccncc1,5,14[16.7 µM]
